Rce1 inh = inhibitors of yeast Ras-converting enzyme | Q03530 | yeast membranes, quenched prenylated peptide cleavage fluorescence | calls only | 290,000 compounds, 0.27% hits;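 active = fall in fluorescence gain of 50% or more versus controls, with final raw signal at or below 3038400; inconclusive = same 50% fall but final raw signal above 3038400; inactive = fall in fluorescence gain under 50%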;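 also: plate controls were neutral control wells for no effect and wells lacking membranes for full effect; tested at 10 µM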
Target sequence (Q03530 whole entry, looked up): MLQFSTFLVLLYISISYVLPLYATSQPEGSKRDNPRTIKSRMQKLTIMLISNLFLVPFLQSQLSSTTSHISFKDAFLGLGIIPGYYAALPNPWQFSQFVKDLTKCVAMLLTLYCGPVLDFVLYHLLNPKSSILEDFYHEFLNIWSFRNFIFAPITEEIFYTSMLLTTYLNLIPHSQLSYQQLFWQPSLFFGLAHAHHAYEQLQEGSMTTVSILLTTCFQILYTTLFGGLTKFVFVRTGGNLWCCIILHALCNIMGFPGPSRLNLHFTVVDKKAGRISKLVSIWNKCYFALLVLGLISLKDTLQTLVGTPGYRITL
HIV Env fusion = inhibitors of HIV Env-mediated cell fusion. 360,000 compounds, 1.1% hits. inhibition, % at 12.3 µM. HeLa-JRFL Env/CEM21 cell fusion, luciferase;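 active = mean replicate inhibition score of at least 50 and every replicate individually at or above 50; inconclusive = only one of the two criteria met; inactive = mean below 50 and not all replicates reaching 50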;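 also: 0% = plate neutral controls and 100% = maraviroc near 300 nM; one replicate is shown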
eIF4H inh = inhibitors of RNA binding by human eIF4H. eIF4H fluorescence polarization binding assay. inhibition, % at 35 µM. 290,000 compounds, 0.94% hits. AID 2012;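 active = 50% or more with normal probe brightness, or confirmed in later tests; inconclusive = above 50% with abnormal brightness, or retests that disagree; inactive = below 50% or failed in later tests; about a fifth of its hits are not listed in these tables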;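 also: calls also rest on retests at 20 µM and on dose response follow-up; 0% = protein and probe with vehicle and 100% = probe without protein; strong numbers were not always called active; many hits fall short of the cut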
MT1-MMP act inh = blocks activation of human MT1-MMP; P50281; AID 651647; 360,000 compounds, 0.061% hits; HT1080 RFP-PRO-GFP cells, GFP/RFP ratio fluorescence, overnight; percent of plate control window, DMSO zero; GFP/RFP ratio change, % at 20 µM;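 active = GFP/RFP ratio change of at least 30% with cell ATP level not reduced by more than half and red fluorescence within 50% of control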; also: strong numbers were not always called active
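Assay system: RFP-PRO-GFP reporter HT1080 cells; read-out basis: GFP/RFP fluorescence ratio; benchmarks: DMSO wells and RFP-L50D-GFP cells; doses: 20 µM single dose, 1% DMSO; schedule: overnight cell settling, then overnight compound exposure, 37 °C, 5% CO2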
UUG fidelity = alters start codon recognition fidelity in yeast | S. cerevisiae UUG-firefly luciferase reporter, luminescence/redox ratio | activity score, % at 18.7 µM | 350,000 compounds, 0.13% hits | AID 602363;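 active = replicate mean at a twofold rise or more, about +100% in these data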;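 also: firefly luciferase made from a UUG start codon reports start codon fidelity; reporter light over untreated wells divided by growth signal over untreated wells; some hits fall short of that in this replicate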
PABP FP inh = PABP-poly(A) binding inhibition; P11940; PABP-poly(A) RNA binding, fluorescence polarization; inhibition, % at 35 µM; 290,000 compounds, 1% hits;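 active = 50% or more with normal probe brightness, or confirmed in later tests; inconclusive = above 50% with abnormal brightness, or retests that disagree; inactive = below 50% or failed in later tests; about a fifth of its hits are not listed in these tables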;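 also: calls also rest on retests at 20 µM and on dose response follow-up; controls were probe without protein and protein plus probe with vehicle; some compounds called inactive have numbers as strong as hits; many hits fall short of the cut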
CSC inhib = cancer stem cell inhibition; cancer stem cell-like cells viability, luminescence; inhibition, % at 7.5 µM; 300,000 compounds, 1.1% hits; AID 2717;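 active = mean at 75% or more and at least half the replicates too; inconclusive = mean and replicates disagree; tested in HMLE shEcad cells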;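 also: 0% = median of negative and 100% = median of positive control wells; the first replicate is given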
eIF4H inh retest = second read-out of eIF4H inh, no call of its own (marks repeat the call); inhibition, %; compound at 20 µM; confirmation average;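 mean of two retest wells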
PABP FP inh retest = recorded beside PABP FP inh, whose call it bears; inhibition, %; compound at 20 µM; confirmation repeats;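 mean of two retest wells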
MT1-MMP act inh RFP = recorded beside MT1-MMP act inh, whose call it bears; RFP signal change, %; measured here: RFP expression control read;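 0 = vehicle wells; hits needed this value within 50% of zero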
Numbers without * were called inactive; i = inactive; ? = inconclusive; . = not tested or not shown. Compounds as they come, and some 3% of all compounds hit somewhere here.

SMILES | Rce1 inh | HIV Env fusion | eIF4H inh | MT1-MMP act inh | MT1-MMP act inh RFP | UUG fidelity | PABP FP inh | CSC inhib | others
COc1ccc(CCNC(=O)C2CCCN2C(=O)Nc2ccc(Cl)cc2)cc1OC (stereo not drawn) | i | 7 | -3 | 0 | -3 | -10 | -4 | 5
O=C(O)c1c[nH]c2ccc(F)cc2c1=O | i | 17 | 13 | 10 | 6 | -10 | -11 | 4
CCOC(=O)CSc1cc(=O)n(C)c2cc(Cl)ccc12 | i | . | -6 | 3 | 8 | -17 | -6 | -1
Cc1ccc(S(=O)(=O)N(Cc2cc3ccccc3[nH]c2=O)c2cccc(C)c2)cc1 | i | 23 | 0 | -1 | -2 | -12 | 7 | 15
CN(C)c1ccc(-c2cccc(C3CC=CC4C3C(=O)N(Cc3ccccc3)C4c3ccc(C(F)(F)F)cc3)c2)cc1 (stereo not drawn) | i | 18 | -8 | -1 | -6 | -3 | -1 | 9
Cc1c(/C(O)=C2\C(=O)C(=O)N(CCN(C)C)C2c2cccnc2)cnn1-c1ccccc1 (stereo not drawn) | . | . | -20 | 3 | 4 | -17 | -5 | -7
CC1(NC(=O)Nc2cccc3ccccc23)CCS(=O)(=O)C1 (stereo not drawn) | i | 4 | 2 | 4 | 3 | -13 | 3 | -12
CC1CN(C2CCN(S(=O)(=O)c3ccc(F)cc3)CC2)CC(C)O1 (stereo not drawn) | i | -26 | -3 | 5 | 3 | -12 | 12 | 6
CCC(C)(C)n1nnnc1C(c1ccccn1)N1CCN(c2cccc(OC)c2)CC1 (stereo not drawn) | . | . | 5 | 0 | -1 | -16 | 8 | .
COCCNC(=S)N1CCN(S(=O)(=O)c2ccc(Cl)s2)CC1 | i | 4 | -9 | 2 | 3 | -17 | -1 | .
CCCn1c(=N)n(CC(=O)c2ccc(Cl)c(Cl)c2)c2ccccc21 | i | 10 | -4 | 3 | 1 | 5 | -3 | 15
O=C(N1CCN(Cc2ccccc2)CC1)C(Cl)(Cl)Cl | i | 17 | -6 | 4 | 2 | . | 5 | -2
FC(F)(F)c1ccc(N=Cc2sc(N3CCOCC3)nc2-c2ccccc2)cc1 | i | -48 | 6 | -2 | 4 | -11 | 0 | -11
CSc1nc(-c2ccccc2)ccc1C(N)=O | i | -54 | -5 | 10 | 2 | . | -2 | -14
COc1ccc(CNCc2ccco2)cc1OCc1ccccc1 | i | . | 8 | 4 | -2 | -10 | 3 | -2
Cc1c(C(=O)N2CCCCC2)sc(N)c1C#N | i | . | 3 | 0 | 5 | -13 | 8 | 2
CC1Cc2ccccc2N1C(=O)COC(=O)c1ccc(Cl)nc1 (stereo not drawn) | i | 12 | 1 | 0 | 1 | . | -17 | -12
Cc1ccsc1/C=N/Nc1ccc(Cl)nn1 | i | -10 | 0 | 0 | 1 | 17 | 2 | -8
Cc1cc(=O)oc2cc(OCC3CC(c4ccc(N(C)C)cc4)=NO3)ccc12 (stereo not drawn) | . | -29 | -3 | -4 | 1 | -15 | -14 | 10
CN(c1ccccc1)S(=O)(=O)c1ccc(C(=O)NCc2ccc(F)cc2)cc1 | . | -11 | . | 0 | -8 | -16 | . | -10
O=C(NN=C1c2ccccc2-c2ccccc21)c1ccccc1Br | i | . | 4 | 0 | -2 | -4 | -4 | 17
N#CCC(=O)NN=C1CCCCCCCCCCC1 | i | . | -8 | . | . | -7 | 0 | -8
CC(C)C[C@H](NC(=O)C1CC(=O)N(c2ccc3c(c2)OCCO3)C1)C(=O)NC1CCCC1 (stereo partly drawn) | i | 13 | -2 | 0 | 1 | -3 | 17 | -3
Cn1c(=O)n(C)c2cc(NS(=O)(=O)c3ccccc3)ccc21 | i | . | 7 | 9 | 10 | -9 | 6 | -7
CCc1nnc(N/N=C/c2c(Cl)cccc2Cl)n1N | i | -59 | -3 | 10 | -5 | -27 | 2 | -12
Cc1ccc2nc(-c3ccccc3)cc(C(=O)NCCCn3ccnc3)c2c1 | i | -44 | -5 | -1 | -1 | -27 | -4 | 7
O=C(CSc1nnc(NC(=O)c2ccco2)s1)Nc1ccccc1Br | i | -5 | -6 | -2 | -1 | 11 | 9 | -2
CCC(=O)N1CCc2cc(Br)cc(S(=O)(=O)Nc3c(C)n(C)n(-c4ccccc4)c3=O)c21 | i | . | 5 | . | . | . | -6 | -3
CCCC(=O)C1=C(c2ccccc2)C(C#N)(C#N)C(C#N)=C1N | i | 48 | ? | -20 | 9 | -15 | ? | -9
COc1cccc(C2NC(=O)NC(C)=C2C(=O)OCC2CCCO2)c1 (stereo not drawn) | i | 4 | -8 | -4 | 4 | . | 2 | -31
O=C(c1ccc2ncsc2c1)N1CCN(c2cccc(C(F)(F)F)c2)CC1 | . | 13 | . | -7 | -16 | -5 | . | .
CC1(C)Cc2c(cnn2-c2ccc(F)cc2)C(NC(=O)CCc2ccncc2)C1 (stereo not drawn) | i | -19 | -5 | -2 | -1 | -7 | -2 | .
COc1ccccc1N1CCN(C2CCCCC2NS(=O)(=O)c2ccccc2)CC1 (stereo not drawn) | i | 17 | -1 | 1 | 1 | -12 | 3 | 7
CCOc1ccc(NC(=S)N2CCC(c3nc4ccccc4[nH]3)CC2)cc1 | i | 11 | 3 | 5 | 0 | -26 | 1 | -8
CN(C(=O)c1cccc(NC(=O)C2CCCN(C(=O)OC(C)(C)C)C2)c1)C1CCCC1 (stereo not drawn) | . | 31 | . | 5 | -12 | -4 | . | -1
Cc1ccc(/C=N/Nc2nc(N3CCOCC3)nc(N3CCOCC3)n2)o1 | i | 21 | 12 | 2 | 4 | . | -3 | -13
COc1ccc(S(=O)(=O)NC2CCCCCC2)cc1C(N)=O | i | -10 | -9 | 1 | -1 | 2 | -4 | -20
COc1ccc(NC(=O)CSc2nc(=O)n(CCN3CCOCC3)c3c2CCC3)c(OC)c1 | i | 4 | . | -4 | 2 | -5 | . | 1
COCC(C)n1c(C)cc(C(=O)Cn2c(=O)oc3ccccc32)c1C (stereo not drawn) | i | . | -8 | -1 | -2 | 13 | 15 | -13
Cc1cn([C@H]2C[C@H](O)[C@@H](CNCc3ccc(C#CCCO)cc3)O2)c(=O)[nH]c1=O | . | -9 | . | 2 | 5 | -8 | . | .
CC1(C)Cc2c(sc(NC(=O)c3ccc4ncsc4c3)c2C(N)=O)C(C)(C)N1 | i | -12 | 3 | -5 | 0 | . | 2 | 14
O=C(CSc1nnc(CNC(=O)c2c(F)cccc2F)o1)Nc1ccc2c(c1)OCCO2 | i | 6 | 5 | -1 | 1 | -1 | 5 | -9
S=C(NCCc1ccccn1)Nc1ccc(Cl)cc1Cl | i | 1 | 1 | 7 | -1 | . | 16 | -10
O=C(CSCC(=O)N1CCCCC1)Nc1nc(-c2ccccc2)c(-c2ccccc2)s1 | . | 22 | 80* | -10 | -23 | -17 | 17* | 51 | eIF4H inh retest=53*;PABP FP inh retest=72*
O=C(COC(=O)C12CC3CC(CC(Cl)(C3)C1)C2)Nc1ccccc1 | . | 1 | . | 0 | 1 | 4 | . | -19
CC(C)C(=O)NC(c1cccs1)c1cc([N+](=O)[O-])c2cccnc2c1O (stereo not drawn) | i | . | 11 | 16 | 0 | -15 | -26 | 104*
CSCCC(NC(=O)c1ccccc1)C(=O)NNC(=O)c1csc(N2CCOCC2)n1 (stereo not drawn) | i | -5 | 1 | 2 | 2 | -8 | -8 | -18
CCCC(C(=O)NC1CCCC1)N(C(=O)Cn1nnc(-c2ccc(C)o2)n1)c1cccc(O)c1 (stereo not drawn) | i | -1 | -1 | -4 | -4 | -3 | -8 | .
Cc1ccc(N2CCN(S(=O)(=O)N3CCOCC3)CC2)cc1C | i | 7 | -6 | 1 | 3 | . | 5 | -1
Nc1nc(SCCOc2ccccc2)n[nH]1 | i | -132 | -6 | 7 | 6 | -26 | -4 | -5
CC(=O)NCCc1ccc(S(=O)(=O)N2CCCC2)cc1 | i | . | -1 | 2 | 7 | 3 | 4 | 4
COc1ccc(-n2nc(C(=O)NCC(=O)N3CCCCC3)c3ccccc3c2=O)c(OC)c1 | i | -16 | -5 | 1 | -1 | -7 | -2 | -11
Cc1nnc(SCC(=O)N2CCN(S(=O)(=O)c3ccc(Cl)cc3)CC2)n(N)c1=O | i | . | -1 | 3 | 6 | -18 | -3 | -7
CCN(C(=O)CCc1nnc2ccc(NCc3ccco3)nn12)c1ccccc1 | i | 0 | 4 | 3 | 1 | 0 | -1 | -6
COC(=O)C1=NN(C(C)=O)C2(CC(=O)N(c3cc(C)cc(C)c3)C2=O)C1 (stereo not drawn) | i | 8 | -3 | 3 | 5 | 2 | 6 | .
COc1cc(COCC(O)CN2CCN(CCN3C(=O)c4cccc5cccc(c45)C3=O)CC2)cc(OC)c1OC (stereo not drawn) | i | -62 | 7 | . | . | . | 17 | -21
O=C1C2C3CCCC3=C3CCCC3C2C(=O)N1c1ccc(Cl)cc1 (stereo not drawn) | i | . | 26 | 1 | 6 | -9 | 10 | -10
O=C(COC(=O)c1ccccn1)Nc1c(Cl)cccc1Cl | i | . | 9 | 5 | 6 | -2 | -9 | .
COc1ccccc1CC1S/C(=N/N=C/c2ccco2)NC1=O (stereo not drawn) | i | -5 | -4 | 3 | 2 | . | -13 | .
CC(=O)N1CCN(S(=O)(=O)c2cccc(C(=O)N(Cc3ccccc3)c3ccc(C)cc3)c2)CC1 | i | -15 | . | 0 | -3 | 30 | . | -7
More compounds
SMILES | Rce1 inh | HIV Env fusion | eIF4H inh | MT1-MMP act inh | MT1-MMP act inh RFP | UUG fidelity | PABP FP inh | CSC inhib | others
CCOC(=O)c1c(C)[nH]c(C)c1C(=O)Cn1nnc(-c2ccccc2C)n1 | i | 3 | . | -2 | -8 | -16 | . | -6
CC(=O)Nc1c(-c2ccc3ccccc3c2)nc2ccccn12 | i | -76 | 7 | 4 | 0 | -21 | 0 | .
COc1nnc(-c2ccc(C)cc2)c2ccccc12 | i | 1 | 8 | -4 | -5 | 5 | -10 | -11
CC(C)n1nc(C(=O)Oc2ccc(Cl)cc2)c2ccccc2c1=O | i | 18 | -11 | 5 | 5 | -16 | -8 | 8
CCN(CC)C(=O)CCc1nnc(Cc2cccc(C(F)(F)F)c2)o1 | i | -25 | 2 | -1 | -2 | . | -2 | -11
CN1/C(=C\C(=O)c2cncc(Br)c2)C(C)(C)c2ccccc21 | i | 33 | 2 | 31* | 12* | -5 | 1 | 0
